Sa helicase inh = blocks Staphylococcus aureus DNA helicase; 120,000 tested, 0.05% active; AID 485395; purified S. aureus helicase, fluorescence unwinding assay; about half of the hits fall short of the stated cut; inhibition, %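 (tested at about 80 µM)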;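 active = both duplicates at 50% or more, or one of them with a favoured structure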;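 also: 0% = mean of negative control wells and 100% = mean of positive control wells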
MgrA DNA FP = S. aureus MgrA-DNA binding modulation; fluorescence polarization; 84,000 tested, 0.13% active; inhibition, %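 (about 10 µg/mL by stock and volumes)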;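 active = above 50% in either of two replicates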;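 also: 0% = protein plus DNA without compound and 100% = DNA alone without protein; higher means less MgrA bound to DNA so lower polarization; one replicate is shown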
Starred values were filed as active, the others as inactive; / = no result given. An excerpt, so the mix of outcomes need not match the whole.

Fields – Sa helicase inh, MgrA DNA FP
Cc1cc(=O)oc2cc(OC(C)C(=O)NCC3CCCO3)ccc12 (stereo not drawn)
 : 5.0, 1.9
Cc1nn(-c2ccccc2)c(C)c1Sc1ccccc1N
 : 13.0, 0.8
CCC[C@@H]1C[C@@H](C(=O)N[C@@H](C2O[C@H](SC)[C@H](O)[C@@H](O)[C@H]2O)[C@H](C)Cl)N(C)C1 (stereo partly drawn)
 : /, 0.7
Cc1ccc(Sc2c(C(=O)O)cnc3c2c(C)nn3C)cc1
 : /, -2.7
COc1ccc(/C(C#N)=C/c2ccccc2OC)cc1
 : /, -0.4
Cc1ccc(C(=O)C(O)(O)C(F)(F)F)cc1
 : /, -1.5
CC1CCCN(S(=O)(=O)c2ccc3[nH]c(=O)cc(C(=O)NCCCN4CCCCC4C)c3c2)C1 (stereo not drawn)
 : 2.0, -0.2
NC(=O)c1ccc(NC(=O)c2cn(-c3ccccc3)nc2-c2cccs2)cc1
 : -6.0, -1.8
O=C(O)CCN1CCCC1
 : 1.0, -5.5
O=C(O)CCC(=O)c1ccc(Cl)s1
 : -8.0, -3.9

(continued)
Fields – Sa helicase inh, MgrA DNA FP
Cc1[nH]c(=O)c(C#N)c(C)c1CCC(=O)N(C)CC(=O)Nc1ccc(Cl)c(Cl)c1
 : 7.0, /
CCOc1ccc(C2=C(C)SC(=Nc3ccc(Cl)cc3)NN2)cc1
 : -19.0, /
CCC(=O)N1CCc2cc(S(=O)(=O)NCCC(=O)Nc3ccc(Br)cc3C)ccc21
 : 6.0, 0.8
O=S(=O)(Oc1cc(Cl)cc(Cl)c1)c1cc(C(F)(F)F)cc(C(F)(F)F)c1
 : /, -1.0
CC(C)C(=O)N(C)Cc1cc2ccccc2[nH]c1=O
 : -1.0, -0.3
CCOC(=O)C1=C(CS(=O)(=O)c2ccccc2)NC(=O)NC1c1ccc(SC)cc1 (stereo not drawn)
 : 8.0, 1.8
CN1C(=O)/C(=C2\SC(=S)N(NC(=O)c3ccccc3Cl)C2=O)c2ccccc21
 : /, 2.0
COc1ccc(NC(=S)N(CCC#N)C2CCCCC2)cc1
 : /, -3.0
COC(=O)c1nc2c(C)cccn2c1F
 : 34.0, /
CCN(CC)C(=O)NCc1ccccn1
 : 1.0, 3.5

Continuation.
Fields – Sa helicase inh, MgrA DNA FP
COc1ccc(-c2nnc(NC(=O)CC(C)C)s2)cc1
 : -1.0, -2.3
O=C(NC1(c2ccccc2)CC1)c1ccccc1
 : 12.0, /
COC(=O)c1sccc1NC(=O)/C=C/c1cccs1
 : -10.0, /
C=CCNC(=O)c1cc2c(=O)c3ccccc3oc2nc1C
 : /, -1.4
CC(C)(C)C(=O)CSc1nc2ccccc2c(=O)n1-c1ccc(F)cc1F
 : -11.0, -1.4
N#Cc1ncc(C(F)(F)F)cc1OCc1ccccc1Cl
 : /, 2.0
CCN(C(=O)/C=C/c1ccccc1)c1ccccc1
 : /, -0.6
OCC1OC(Sc2ccccc2)C(O)C(O)C1O (stereo not drawn)
 : /, 0.5
Cc1ccccc1Nc1nc(N)nc(CSCc2c(C)noc2C)n1
 : -6.0, /
CC(=O)Nc1c2c(nn1C(C)(C)C)CSC2
 : 6.0, /

The list continues.
Fields – Sa helicase inh, MgrA DNA FP
O=C(OCCCN=C1NS(=O)(=O)c2ccccc21)c1ccc(Br)cc1
 : /, -0.5
CC1(C)COC(CC(=O)c2cccs2)=N1
 : 2.0, /
CCCC/C(O)=C1/C(=O)CC(C)(C)CC1=Nc1ccccc1OC
 : -13.0, 1.5
C1=CCC(C2OCC(CN3CCOCC3)O2)CC1 (stereo not drawn)
 : -19.0, /
Cc1cccc2oc3cc(Nc4ccccc4)c4c(=O)c5ccccc5c(=O)c4c3[nH]c12
 : /, -2.6
Cc1cccc(CN2C(=O)/C(=C\c3ccc(C(=O)N4CCN(C)CC4)cc3)Oc3ccccc32)c1
 : 9.0, /
CC1CCC2(CC1)NC(=O)N(NC(=O)CN1CCN(Cc3nc4ccccc4s3)CC1)C2=O (stereo not drawn)
 : -7.0, /
CCN(CC)CCn1c(NC(=O)c2cc3c(s2)CCCC3)nc2ccccc21
 : 10.0, /
CNc1cccc2cccc(OC)c12
 : -6.0, -2.4
COc1ccccc1OCCN1CCN(c2ccccc2)CC1
 : -6.0, 0.8

Other compounds.
Fields – Sa helicase inh, MgrA DNA FP
O=C(Oc1cccc2cccnc12)c1ccccc1
 : -6.0, 2.5
CN1CCN(C(=O)C2CCCN(S(=O)(=O)N3CCCCC3)C2)CC1 (stereo not drawn)
 : -13.0, /
CC1(C(=O)Nc2nc3ccccc3s2)CCCC1
 : -13.0, 0.3
Cc1ccc(CN(C)C(=O)Cc2csc(-c3ccccc3)n2)o1
 : -14.0, /
COc1cccc(NC(=O)NCCc2nnc(SC)n2C)c1
 : 2.0, 0.6
OC1CCNC(=S)N1c1ccccc1 (stereo not drawn)
 : 16.0, 0.9
CC(=O)NC1C(OC2CCCCC2)OC(CO)C(O)C1O (stereo not drawn)
 : -2.0, 1.9
Cc1nc(SCC(=O)NC(N)=O)c2c(-c3cccs3)csc2n1
 : -12.0, /
COc1ccc(OC)c(C2=NOC(C(=O)N3CCCc4ccccc43)C2)c1 (stereo not drawn)
 : 2.0, -2.1
CCc1cccc(C)c1NC(=O)N(C)C1CCCCC1
 : -12.0, /

Next section
Fields – Sa helicase inh, MgrA DNA FP
COC(=O)c1scc(S(=O)(=O)C(C)C)c1N
 : /, 3.4
CC1(C)CC(NC(=O)/C=C/c2ccccc2)CC(C)(C)N1
 : 2.0, /
C=CCN(CC=C)Cc1c(C)[nH]c2ccc(OCC)cc2c1=O
 : -19.0, /
O=C(Cn1ccc(=O)[nH]c1=O)NCc1ccc(Cl)cc1
 : 3.0, /
O=C(CSc1ccc(-c2ccc(F)cc2)nn1)N1CCOCC1
 : 8.0, 18.8
O=S(=O)(Nc1ccc(Oc2cc(C(F)(F)F)cc(C(F)(F)F)c2)cc1)c1cc(C(F)(F)F)cc(C(F)(F)F)c1
 : /, -1.2
Cn1c(C(=O)NCCCN2CCCCC2)cc2sccc21
 : 20.0, /
Cc1n[nH]c(=O)nc1NCCN(C)C
 : 8.0, -1.4
Cc1cc(-c2nc3ncccc3o2)ccc1NC(=O)C(C)(C)Oc1ccc(Cl)cc1
 : 0.0, -1.8
O=C(NCCN1CCOCC1)c1cnn2c(C(F)F)cc(-c3ccccc3)nc12
 : 17.0, -1.4

Additional entries follow:
Fields – Sa helicase inh, MgrA DNA FP
COc1cccc(Oc2ccc(OC)cc2C(=O)NN)c1
 : /, -1.9
CCN1CCN(C(=O)c2ccc(CNS(=O)(=O)c3cccc(OC)c3)cc2)CC1
 : 0.0, -2.5
COc1cccc(N2CCN(C(=O)c3cnc(N4CCCC4)nc3)CC2)c1
 : 17.0, /
Cc1ccccc1Nc1nc(N)nc(CSc2nc3ncc(Cl)cc3[nH]2)n1
 : -11.0, /
CCOC(=O)c1[nH]c(C)c(C(=O)OCC(=O)N2CCC(c3ccccc3)=N2)c1C
 : -3.0, /
CC(C)(C)c1cn(-c2ccc(Cl)cc2)c(=S)[nH]1
 : 1.0, /
COc1nonc1-n1nnc(C(=O)c2ccccc2)c1C
 : 13.0, -0.9
CCn1c(=O)c(C(=O)CN(C)Cc2ccc(F)cc2)c(N)n(Cc2ccccc2)c1=O
 : -10.0, /
O=C(NC(=O)c1ccccc1Cl)c1ccccc1O
 : /, 0.0
CCOC(=O)c1ccc(Cl)c(NC(=S)N(C)C)c1
 : /, -1.8

Other results follow:
Fields – Sa helicase inh, MgrA DNA FP
CN(Cc1ccco1)C(=O)c1cc2c(s1)-c1ccccc1OC2
 : 18.0, /
COc1ccc(NC(=O)CCCn2c(=O)c3sccc3n(Cc3ccccc3)c2=O)cc1
 : 12.0, 0.2
Fc1ccc(Nc2cccc3nonc23)cc1
 : 3.0, 21.8
CCOC(=O)c1c(NC(=O)N2CCOc3ccc(Cl)cc32)sc2c1CCCC2
 : 7.0, 0.5
Cc1cc(C)c2cc(C(=O)NCCN3CCCCC3)[nH]c2c1
 : /, 3.8
CC1CCN(C(=O)c2cccc(N3C(=O)C4C5C=CC(C5)C4C3=O)c2)CC1 (stereo not drawn)
 : -30.0, /
CCCCN1CN=C(Nc2nc(C)c3ccccc3n2)NC1
 : 17.0, -1.6
Cc1ccc(-n2nnc(C(N)=O)c2N)cc1
 : 11.0, -3.2
O=C1Nc2ccc(S(=O)(=O)NCCO)c3cccc1c23
 : 27.0, /
COc1ccc(CNC(=O)c2ccc(N3CC4CC(C3)c3cccc(=O)n3C4)c(N)c2)cc1 (stereo not drawn)
 : 4.0, /

Further structures
Fields – Sa helicase inh, MgrA DNA FP
Nc1nc2[nH]c(=O)[nH]c(=O)c2s1
 : 15.0, 2.2
CN(C(=O)CSc1nnc(-c2ccccc2)o1)c1ccccc1
 : -22.0, /
CCc1ccccc1N/C=C1/CCCCC1=O
 : 6.0, 1.5
COc1ccc(CCNC(=O)c2cc(C(F)(F)F)cc(C(F)(F)F)c2)cc1OC
 : /, 0.8
COc1ccc(-c2nc(CSCC(=O)NCc3ccc4c(c3)OCO4)c(C)o2)cc1
 : 6.0, /
COc1ccc(-c2ccc(Cc3cn4ccsc4n3)o2)cc1OC
 : -10.0, /
CS(=O)(=O)N(CC(N)=O)Cc1ccc(F)cc1
 : 3.0, -4.2
O=C1CS/C(=N\NC(=S)NCc2ccco2)N1
 : 9.0, /
O=C(Nc1cccc(-c2ncon2)c1)c1ccc(Cl)cc1
 : /, -0.5
CC(C)(C)C(=O)COC(=O)[C@@H]1CC(O)CN1S(=O)(=O)c1ccc(F)cc1 (stereo partly drawn)
 : 5.0, /

Next part:
Fields – Sa helicase inh, MgrA DNA FP
COc1ccc(C(=O)c2c(C)oc3ccc(OC)cc23)cc1
 : /, -0.9
OC(c1ccccc1)(c1ccccc1)C1CCN(C(=S)Nc2ccccc2)CC1
 : 7.0, 2.6
CC1(C)CC(OC(=O)CC#N)CC(C)(C)N1
 : -13.0, /
Cc1ccc(C(C)C)c(OCC(N)=O)c1
 : 3.0, /
COc1cccc(/C=C2\C(=O)NC(=O)N(c3cccc(OC)c3)C2=O)c1
 : 15.0, -6.0
CNC(=O)COC(=O)c1cccnc1Nc1ccccc1F
 : -3.0, /
COc1ccc(CN2CCCCC2CO)cc1Br (stereo not drawn)
 : 6.0, 0.5
O=C(OCCCn1c(=O)[nH]c2ccccc21)c1ccc2c(c1)C(=O)N(Cc1ccco1)C2=O
 : 3.0, /
Nc1n[nH]c(-c2ccc(Br)cc2)n1
 : 2.0, -2.5
N#CS/C=C/C(=O)c1ccccc1
 : 10.0, -2.8

Continued.
Fields – Sa helicase inh, MgrA DNA FP
CCN(CC)c1ccc(C=C2C(=O)OC3(CCCC3)OC2=O)cc1
 : -52.0, 2.9
O=C(O)COc1ccc(CN2CCCC2)cc1
 : 6.0, 0.2
CNC(=O)Cn1ncc2c(C)n(Cc3ccc(C)cc3)c(C)c2c1=O
 : 9.0, /
COC(=O)c1c(-c2ccccc2)nn(-c2ccc(Cl)cc2)c1OC
 : -20.0, 0.6
O=c1oc2ccccc2n1CCc1nc(-c2ccc(C(F)(F)F)cc2)no1
 : 9.0, /
COc1ccc(N2C(=O)/C(=C/c3ccc(N(C)C)c([N+](=O)[O-])c3)C(=O)NC2=S)cc1
 : /, 15.9
COc1cccc(NS(=O)(=O)c2csc(C(N)=O)c2)c1
 : 14.0, /
CCCCS(=O)c1sc(C(=O)OCC)c2c1C(=O)CCC2 (stereo not drawn)
 : /, -2.0
N#Cc1c(N)nc2c(c1-c1ccccc1Cl)CCC2
 : 4.0, 6.5
O=C(CN1CCc2ccccc2C1)NCCCc1ccccc1
 : 4.0, /

More records follow.
Fields – Sa helicase inh, MgrA DNA FP
CCNc1c(NS(=O)(=O)CC)c(=O)oc2ccccc12
 : 10.0, 1.7
Cc1cccc(-c2nnc(SCC(N)=O)n2C2CCCCC2C)c1 (stereo not drawn)
 : 0.0, /
Clc1ccccc1CSc1nnc(COc2ccccc2)n1Cc1ccco1
 : 7.0, /
Oc1ccc(N=Cc2ccccc2)cc1-c1nc2ccccc2s1
 : 4.0, /
COC(=O)c1ccc(COc2ccccc2/C=N/O)o1
 : -8.0, /
CCOC(=O)c1cc(-c2ccccc2)[nH]c1N1CCCC1
 : /, -0.3
CC1CN=C(c2ccccc2N)N1 (stereo not drawn)
 : /, 0.8
Cc1ccc(N=Cc2ccco2)c(C)c1
 : -6.0, 2.5
CCC1C[N+]2(C)CCc3cc(OC)c(OC)cc3C2CC1=O (stereo not drawn)
 : 0.0, 3.2
Cc1cc(NC(=O)c2cc(C(C)(C)C)oc2C)no1
 : /, 0.8

Continued.
Fields – Sa helicase inh, MgrA DNA FP
CC(C)NC(=S)NCc1cnn(C)c1
 : 9.0, 0.0
Cc1c(/C=N/NC(=O)COc2ccc(-c3ccccc3)cc2)cc(C#N)n1C
 : -6.0, /
Cc1cc(C)cc(CC(C(=O)O)C(C)C(=O)NCc2ccccc2)c1 (stereo not drawn)
 : 11.0, -1.3
CC1=NC2SC=C(c3ccccc3Cl)N2C(=O)C1 (stereo not drawn)
 : /, -1.7
O=C(Nc1ccc(F)cc1)c1ccccc1NC(=S)Nc1cccc(C(F)(F)F)c1
 : /, 2.4
COc1cc(SC)ccc1C(=O)OCC(=O)N(C1CCCCC1)C1CCS(=O)(=O)C1 (stereo not drawn)
 : 1.0, /
CCOC(=O)c1ccc(NC(=O)CCC(=O)O)cc1
 : /, -0.9
c1ccc(CN2CCN(c3ncnc4c3cnn4-c3ccccc3)CC2)cc1
 : -3.0, /
Cc1ccnc(NC(=O)c2cc(-c3ccc(C)c(C)c3)n[nH]2)c1
 : 7.0, -1.0
O=c1[nH]cnc2ccccc12
 : 12.0, /

Full records from above. Order of screens: Sa helicase inh	MgrA DNA FP
CC1=NC2SC=C(c3ccccc3Cl)N2C(=O)C1 (stereo not drawn) is listed as /	-1.7
COc1cc(SC)ccc1C(=O)OCC(=O)N(C1CCCCC1)C1CCS(=O)(=O)C1 (stereo not drawn) is listed as 1.0	/
c1ccc(CN2CCN(c3ncnc4c3cnn4-c3ccccc3)CC2)cc1 is listed as -3.0	/
Cc1ccnc(NC(=O)c2cc(-c3ccc(C)c(C)c3)n[nH]2)c1 is listed as 7.0	-1.0
O=C(Nc1ccc(F)cc1)c1ccccc1NC(=S)Nc1cccc(C(F)(F)F)c1 is listed as /	2.4
